Compound activity: PubChem, Johns Hopkins Ion Channel Center
KCNQ2 inh: KCNQ2 potassium channel inhibitors, primary screen, cell-based, CHO-K1, FluxOR thallium flux, B-score (AID 2156); B-score at 10 µM; 20 min; stronger effect = lower value; only compounds with negative scores are shown here; some inactives read as strong as hits; 310,000 tested, 1.1% active; Potassium voltage-gated channel subfamily KQT member 2 (Rattus norvegicus), O88943;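 active means fluorescence ratio B-score at most minus 3 library SDs, with starting brightness B-score within 2 library SDs, cut at about -5.5 in these data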
Target sequence (O88943 whole entry, looked up): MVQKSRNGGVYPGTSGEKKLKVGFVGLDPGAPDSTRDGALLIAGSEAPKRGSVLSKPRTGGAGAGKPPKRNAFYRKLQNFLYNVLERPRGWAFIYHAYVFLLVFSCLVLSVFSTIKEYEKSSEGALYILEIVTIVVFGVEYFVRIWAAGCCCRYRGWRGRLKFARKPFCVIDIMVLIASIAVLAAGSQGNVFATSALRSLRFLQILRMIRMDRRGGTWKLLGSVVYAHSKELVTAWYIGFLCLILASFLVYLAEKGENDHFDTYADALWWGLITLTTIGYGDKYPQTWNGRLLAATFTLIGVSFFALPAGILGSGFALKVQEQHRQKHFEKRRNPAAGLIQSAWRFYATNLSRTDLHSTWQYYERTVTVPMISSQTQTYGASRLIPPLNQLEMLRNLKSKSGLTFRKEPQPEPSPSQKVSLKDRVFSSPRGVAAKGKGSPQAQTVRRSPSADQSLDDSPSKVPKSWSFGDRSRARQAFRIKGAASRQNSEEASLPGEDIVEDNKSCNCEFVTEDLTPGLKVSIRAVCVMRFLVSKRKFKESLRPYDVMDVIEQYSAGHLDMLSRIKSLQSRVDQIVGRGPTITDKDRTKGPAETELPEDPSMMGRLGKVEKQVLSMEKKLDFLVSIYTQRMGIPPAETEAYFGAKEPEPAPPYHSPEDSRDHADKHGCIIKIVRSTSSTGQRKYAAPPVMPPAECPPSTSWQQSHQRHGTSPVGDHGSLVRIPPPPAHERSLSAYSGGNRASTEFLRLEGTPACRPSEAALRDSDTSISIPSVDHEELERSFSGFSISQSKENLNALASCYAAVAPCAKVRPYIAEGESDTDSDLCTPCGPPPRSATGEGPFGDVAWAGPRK
KCNQ2 inh baseline: second read-out of KCNQ2 inh, no call of its own (marks repeat the call); B-score; measured here: initial fluorescence intensity artifact check;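 brightness before thallium and not channel activity; 0 = typical well and far values either way flag optical interference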
An asterisk follows results filed as active; i = inactive. A portion of the library. The share of hits here may be higher or lower than overall.

KCNQ2 inh | KCNQ2 inh baseline | Compound
i | -2.7 | COc1ccc(Cn2nnnc2CN(Cc2cc3ccc(C)cc3[nH]c2=O)C2CCCC2)cc1
i | -0.01 | O=c1cc(N2CCCCC2)c(-c2ccccc2)nn1Cc1ccccc1Cl
i | -1.1 | CCOC(=O)c1c(CS(=O)(=O)c2ccccc2)n(C)c2cc(Br)c(O)c(CN(C)C)c12
i | 0.03 | COc1ccccc1C1=NN(C2=NN=C(N)Cc3ncnn32)C(O)(C(F)(F)F)C1 (configuration not stated)
i | -0.36 | Cc1cc(C(=O)Nc2ccc(N3CCOCC3)cc2)c2ccccc2n1
i | -0.73 | O=C(Nc1cccc([N+](=O)[O-])c1)Nc1cccc([N+](=O)[O-])c1
i | -0.01 | Cc1ccc(-n2c(C)c([N+](=O)[O-])c3ccc(O)c(CN(C)C)c32)cc1
i | -0.82 | Cc1ccc(S(=O)(=O)N(C)C)cc1NC(=O)C(C)N(C)CCOc1ccc(Cl)cc1 (configuration not stated)
i | 8.5 | [O-][n+]1c2c(c3c4non(O)c4ccc31)CCCC2
i | -1.6 | O=C(COC(=O)c1ccccc1OCc1ccc(Cl)cc1)NC1CC1
i | -0.03 | N#CCc1ccc(NC(=O)Nc2cccc3ccccc23)cc1
i | 0.24 | Fc1cccc(Cl)c1Cn1nnc2c(N3CCC4(CC3)OCCO4)ncnc21
i | -1.4 | Cc1cc(C)c[n+](-c2[nH]c(=O)sc2/C=N/NC([S-])=Nc2ccccc2)c1
i | 2.8 | Cc1ccc(N(C(=O)c2csnn2)C(C(=O)NC2CCCCC2)c2ccccn2)c(C)c1 (configuration not stated)
i | 1.8 | O=C(O)/C=C\C(=O)Nc1ccccc1C(=O)NC1CCCCC1
i | -0.01 | CCN(CC)S(=O)(=O)c1ccc(NC2CCCc3ccccc32)nc1 (configuration not stated)
i | 0.01 | COC(=O)c1ccc(C(=O)Nc2cc(Cl)ccc2Cl)cc1NC(=O)c1ccc(N(C)C)cc1
i | -1.3 | O=C1c2ccccc2C(Nc2ccc(S(=O)(=O)N3CCCCC3)cc2)N1c1ccccn1 (configuration not stated)
i | 0.39 | Cc1ccccc1OCC(O)CN1CCC(C)CC1 (configuration not stated)
i | -1.6 | O=C(O)CCC1(C(=O)O)OCCc2ccccc21 (configuration not stated)
i | 0.17 | O=Cc1ccc(OCc2ccc3c(c2)OCO3)cc1
i | 0.9 | CC(=O)c1ccc(N2CCN(C(=O)c3cc(-c4cccnc4)nc4ccc(Br)cc34)CC2)cc1
i | -0.49 | CC(C)(C)NC(=O)C1CCN(C(=O)c2ccco2)CC1
i | -2.2 | Cc1cccc(C(=O)Nc2cc(NC(=O)c3cccs3)ccc2C)c1
i | -0.76 | Fc1ccc(CN2CCN(C(c3ccccc3)c3ccccc3)CC2)cc1
i | 0.28 | COc1ccc(-c2cc(C(=O)Nc3ccccc3SC)no2)cc1OC
i | -1 | Cc1ccc(C)c(OC(=O)c2cccc(S(=O)(=O)N3CCN(C)CC3)c2)c1
i | -0.39 | COc1ccc(/C=C2/C(=O)OCc3cc(OC)c(OC)cc32)cc1
i | -0.56 | O=C1OC(Nc2nccs2)c2ccccc21 (configuration not stated)
i | -0.08 | CC(CCc1ccccc1)NC(=O)COC(=O)c1cc(NS(=O)(=O)c2ccc(Cl)c([N+](=O)[O-])c2)ccc1O (configuration not stated)
i | -2 | Cc1ccc(-n2nnnc2CNC(=O)c2ccc([N+](=O)[O-])o2)cc1C
i | 0.75 | CCN(CC)C(=O)CN(Cc1ccccc1)S(=O)(=O)c1ccc(F)cc1
i | -0.47 | O=C1S/C(=C\c2ccccc2)C(=O)N1CC(O)Cn1c2ccccc2c2ccccc21 (configuration not stated)
i | 0.08 | N#Cc1ccsc1NC(=O)c1ccccn1
i | 0.24 | O=C(c1ccccc1)N1CCN2C(=O)c3ccccc3C12c1ccc(Cl)cc1 (configuration not stated)
i | -0.42 | O=c1sc2ccccc2c(N2CCCCC2)c1[N+](=O)[O-]
i | -0.87 | O=[N+]([O-])c1ccc(-c2cn(-c3ccc(Cl)cc3)c(=S)[nH]2)cc1
i | 0.66 | N#Cc1nc(-c2cccc3ccccc23)oc1N1CCCCC1
i | 2.2 | CCCCc1cc(=O)oc2cc(OC(C)C(=O)NCCN3CCOCC3)c(Cl)cc12 (configuration not stated)
i | -1 | O=C(O)c1cccc(NC(=O)c2cc(-c3cccc(Cl)c3)nc3ccccc23)c1
i | -0.08 | Cc1cc(C)nc(Sc2nc(Nc3ccccc3)nc(Sc3nc(C)cc(C)n3)n2)n1
i | 0.19 | COc1ccc2c(c1)C(C)=CC(C)(C)N2C(=O)CSc1nnc(-c2ccc(C)cc2)o1
i | -0.54 | Cc1cc(C)nc(NC(=NCCc2c[nH]c3ccccc23)NC(=O)c2ccco2)n1
i | -0.89 | CCN(CC)C(=O)CSc1nc2sc3c(c2c(=O)n1-c1ccc(C)cc1)CC(C)(C)SC3
i | -0.34 | Fc1ccc2nc3c(nc2c1)CCCC3

A different layout for 3 compounds above.
smiles | KCNQ2 inh | KCNQ2 inh baseline
Cc1cccc(C(=O)Nc2cc(NC(=O)c3cccs3)ccc2C)c1 | i | -2.2
CCCCc1cc(=O)oc2cc(OC(C)C(=O)NCCN3CCOCC3)c(Cl)cc12 (configuration not stated) | i | 2.2
COc1ccc(/C=C2/C(=O)OCc3cc(OC)c(OC)cc32)cc1 | i | -0.39

Later entries.
KCNQ2 inh | KCNQ2 inh baseline | Compound
i | -1 | NS(=O)(=O)c1ccc(CCNS(=O)(=O)c2cccc3nsnc23)cc1
i | 0.02 | CCOc1ccc(N2C(=O)c3ccccc3C2=O)cc1
i | -0.03 | Cc1ccc(NC(=O)COc2ccc(Br)cn2)cc1
i | 1.3 | O=C(NC(=S)NCCCN1CCOCC1)c1ccco1
i | 0.86 | c1ccc(OCCn2c(-c3ccco3)nc3ccccc32)cc1
i | 0.44 | Cn1c(SCC(=O)OCC(=O)c2ccccc2)nnc1-c1cccs1
i | 0.29 | COc1ccc(-n2c(=O)c(CCC(=O)N(C)Cc3cccs3)nc3ccccc32)cc1
i | -2.5 | CCN1CCN(c2ncnc3c2cnn3-c2ccc(Cl)cc2)CC1
i | -0.02 | C/C(=N\Nc1cc(Cl)nc(C)n1)c1ccc(C)cc1
i | 3.1 | Cc1ccc(C2CC(c3ccc(Cl)cc3)n3nc(N)nc3N2)cc1 (configuration not stated)
i | 0.02 | CC1CN(c2ccc(Oc3ccccc3)cc2)c2nc3c(c(=O)n(CC(N)=O)c(=O)n3C)n2C1 (configuration not stated)
i | -0.02 | Cc1cc(C)cc(N2C(=O)CSC2c2ccccn2)c1 (configuration not stated)
i | 0.02 | CCn1ccnc1CNCc1cn(-c2cc(C)ccc2C)nc1-c1ccccc1
i | 0.04 | CCCCOc1ccc(-c2ncc(C(=O)O)c(C)n2)cc1
i | -1 | CC(C)(C)NC(=O)Cn1c(=O)oc2ccc(Cl)cc21

Part of the list above, with values under each structure.
Values in the order – KCNQ2 inh | KCNQ2 inh baseline
CC1CN(c2ccc(Oc3ccccc3)cc2)c2nc3c(c(=O)n(CC(N)=O)c(=O)n3C)n2C1 (configuration not stated)
 : i | 0.02
Cc1cc(C)cc(N2C(=O)CSC2c2ccccn2)c1 (configuration not stated)
 : i | -0.02

The results go on.
KCNQ2 inh | KCNQ2 inh baseline | Compound
i | -1.8 | CC(C)(C)N(Cc1ccccc1)C(=O)COC(=O)CCc1c[nH]c2ccccc12
i | 1.3 | CCOC(=O)C1=C(C(F)(F)F)Nc2ncnn2C1c1ccc(OC)cc1OC (configuration not stated)
i | 0.01 | COc1ccc(NC(=S)N(Cc2ccc(C)cc2)Cc2ccccn2)cc1
i | -0.59 | Cc1ccc(N(Cc2cc3ccc(C)cc3[nH]c2=O)S(=O)(=O)c2ccccc2)c(C)c1
i | -0.34 | COc1ccc(C2Nc3ccccc3C(=O)N2NS(C)(=O)=O)cc1OC (configuration not stated)
i | 1.5 | O=C(NCc1ccc2c(c1)OCO2)c1ccc(N2CCCC2=O)cc1
i | 0.29 | COc1ccc(CCC(=O)OCc2csc(CC(=O)Nc3ccccc3C)n2)cc1
i | -0.17 | Cc1cccn2c(CNCC(C)Oc3cccnc3)c(C(=O)N3CCOCC3)nc12 (configuration not stated)
i | -0.79 | O=c1[nH]nc(SCCS(=O)(=O)c2ccc(F)cc2)n1-c1ccccc1C(F)(F)F
i | 3.9 | Cn1nnnc1SCc1ccc(C(=O)Nc2ccccc2F)cc1
i | 0.12 | CC(=O)c1cccc(S(=O)(=O)N2CCC(C(=O)O)CC2)c1
i | 0.01 | COc1cccc(OC)c1C(=O)N1CCN(Cc2ccccc2C(F)(F)F)CC1
i | -0.39 | O=C(O)c1cnc(-c2ccccc2)nc1-c1ccccc1
i | -1.2 | COc1ccc(Cn2nnnc2C(c2cccs2)N2CCN(c3ccc([N+](=O)[O-])cc3)CC2)cc1 (configuration not stated)
i | -0.46 | COC(=O)Cn1cc(C(=O)c2cccs2)c2ccccc21
i | 0.46 | COc1cc(NC(=O)CN2C(=O)COc3ccc(S(=O)(=O)N4CCCCC4)cc32)cc(OC)c1
i | 1.8 | CCOc1ccc(NC(=O)CCNS(=O)(=O)c2ccc(Br)s2)cc1
i | 0.4 | COc1ccc(N2CCN(CC(=O)c3c(C)n(C)c4ccc(OC)cc34)CC2)cc1
i | -0.03 | CCOC(=O)c1nc(Nc2ccc(C(=O)O)cc2)c2ccccc2n1
i | 1.2 | O=C(CN1C(=O)NC2(CCCC2)C1=O)OCCOc1ccccc1Cl
i | -1 | Cc1nn(C)c(C)c1NC(=O)c1ccc(S(=O)(=O)N(C)C)cc1
i | 1.6 | N=C1C(c2ccccc2)=C(O)CN1c1cccc(S(=O)(=O)Nc2cccc(C(F)(F)F)c2)c1
i | 1.9 | Cc1nc2ccccc2c(=O)n1/N=C/c1ccccc1
i | 0.1 | C=CCn1c(SCC(=O)c2ccc(Br)cc2)nnc1C(CC(C)C)NC(=O)c1cccs1 (configuration not stated)
i | -0.05 | COc1cc(CCC(O)CC(=O)CCc2ccccc2)ccc1O (configuration not stated)
i | -1 | O=C(COc1ccc(Cl)cc1Cl)Nc1ccc(Cl)cn1
i | 1.2 | COC(=O)c1cccc(NC(=O)c2cnccn2)c1
i | -0.89 | COc1ccc(NC(=O)CCSc2nnnn2C)cc1
i | -0.25 | Cc1ccc(SC[C@H](C)CN2CC[C@H](NC(=O)OCc3ccccc3)CCC2=O)cc1
i | 1.5 | Cc1[nH]n(-c2ccccc2)c(=O)c1N=O
i | 0.33 | O=C(NC1=NCCS1)c1ccccc1OCc1ccccc1Cl
i | 0.19 | Cn1ccc(C(=O)Nc2ccc3c(c2)OCCO3)n1
i | 0.98 | CCCc1nnc(SCC(=O)NC2CC2)n1C
i | -1.2 | CC(C)(C)c1ccc(NC(=O)Nc2ccc(OCC(=O)N3CCOCC3)cc2)cc1
i | -1.8 | COc1ccccc1-c1cc(C(=O)NC2CCCC2)no1
i | 2.5 | CCOc1cc(N2CCOCC2)c(OCC)cc1NC(=O)CN1C(=O)NC(Cc2ccccc2)C1=O (configuration not stated)
i | -0.01 | CC(C)C1C(=O)CC(c2ccccc2)NC1c1ccccc1 (configuration not stated)
i | 2 | CCC(=O)Nc1ccc(/C(C)=N/NC(=O)c2c(-c3ccccc3Cl)noc2C)cc1
i | -0.61 | C=CCN1C=C2C(=O)C(C)(OC(=O)CCC(=O)OC)C(=O)C=C2C=C1C1CC1 (configuration not stated)
i | 0.01 | CC(C)C(=O)Nc1cccc(C(=O)Nc2cc([N+](=O)[O-])ccc2Cl)c1
i | -0.74 | COc1ccc(NC(=O)Cn2cc(S(=O)(=O)Cc3ccccc3)c3ccccc32)c(OC)c1
i | 2.7 | O=c1[nH]c(Nc2ccccc2)cc2ccccc12
i | 1.3 | Cc1sc2ncnc(NCc3cccs3)c2c1C
i | 1.3 | O=C(c1cccnc1)N1CCN(S(=O)(=O)c2ccc(Cl)cc2)CC1
i | 0.18 | CCOC(=O)c1[nH]c2ccccc2c1NC(=O)C(CC)CC
i | 0.36 | CC1Cc2ccccc2N1C(=O)Cc1cccs1 (configuration not stated)
i | 0.59 | CCN(CC)Cc1ccc(OC)c(Cl)c1
i | -0.01 | COc1ccc(C2=NO[C@@H]3[C@@H]4C[C@@H]([C@H]5C(=O)N(c6ccc7c(c6)OCO7)C(=O)[C@@H]45)[C@H]23)cc1OC
i | 0.01 | CCN(CC)CCNC(=S)NC(=O)c1cn(-c2ccccc2)nc1-c1ccc(OC)cc1
i | -0.91 | COc1ccc(C(=O)NCCn2cc(SCC(=O)NCC3CCCO3)c3ccccc32)cc1OC (configuration not stated)
i | -0.11 | CCc1c(-c2n[nH]c(=S)n2Cc2ccccc2)csc1C
i | -0.22 | CCC(=O)Nc1c(-c2ccc(C)cc2)nc2ccc(C)cn12
i | -0.29 | CCc1ccccc1NC(=S)N(Cc1cccs1)C1CCCC1
i | -2 | Cc1cccc(N2CCN(C(c3ccccc3)c3nnnn3CC3CCCO3)CC2)c1C (configuration not stated)
i | 0.77 | COc1ccc(NC(=O)CN2C(=O)CSc3ccc(S(=O)(=O)N4CCC(C)CC4)cc32)cc1

Compound profiles (already shown).
CC1Cc2ccccc2N1C(=O)Cc1cccs1 (configuration not stated) across the screens: KCNQ2 inh: i; KCNQ2 inh baseline: 0.36
Cc1cccc(N2CCN(C(c3ccccc3)c3nnnn3CC3CCCO3)CC2)c1C (configuration not stated) across the screens: KCNQ2 inh: i; KCNQ2 inh baseline: -2

Quoted from the listing:
In KCNQ2 inh baseline, CCC(=O)Nc1c(-c2ccc(C)cc2)nc2ccc(C)cn12 is listed with -0.22
In KCNQ2 inh baseline, CCN(CC)CCNC(=S)NC(=O)c1cn(-c2ccccc2)nc1-c1ccc(OC)cc1 is listed with 0.01
